Source: PubChem
DUX4 txn inh: inhibitors of DUX4-driven ZSCAN4 reporter expression, primary screen, 293T cells, Gaussia and Italica luciferase; 293T-iDUX4 ZSCAN4-Gaussia luciferase reporter, 24 h; hits give low values; activity change, negative = inhibition, % (no concentration beside the values); AID 1224904, 2016; 37,000 compounds, 0.8% hits;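 active = -10% or lower and over 25 points stronger than a control reporter; inconclusive = -10% or lower with a smaller gap; inactive = above -10%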;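 note: 0% = median of neutral control wells and -100% = median of positive control wells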
DUX4 txn inh difference: also measured in DUX4 txn inh; calls as there; Gaussia minus Italica difference, %; measured here: selective DUX4 reporter inhibition;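 worked out from the two reporters; negative = selective loss of the DUX4 reporter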
DUX4 txn inh control: recorded beside DUX4 txn inh, whose call it bears; activity change, negative = inhibition, %; measured here: Italica tet-on control reporter;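 0 = neutral control and -100 = positive control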
The depositor's hits bear a star; ? = inconclusive; . = not tested or not shown. A portion of the library; count on the stated rates, not on these rows.

| compound | DUX4 txn inh | DUX4 txn inh difference | DUX4 txn inh control |
| --- | --- | --- | --- |
| COc1ccc(S(=O)(=O)Nc2cccc3c2O[C@@H](CN(C)C(=O)Nc2cccc4ccccc24)[C@H](C)CN([C@@H](C)CO)C3=O)cc1 | 0.4 | -0.7 | 1.1 |
| C[C@@H]1CN([C@@H](C)CO)C(=O)c2cccc(NC(=O)C3CCCCC3)c2O[C@@H]1CN(C)Cc1ccc(C(=O)Nc2ccccc2N)cc1 | 1.3 | 0.4 | 0.9 |
| C[C@H](NC(=O)C[C@H]1CC[C@H]2[C@@H](COC[C@@H](O)CN2Cc2cc(F)ccc2F)O1)c1ccccc1 | -0.8 | -1.6 | 0.8 |
| CCCN1C[C@@H](C)[C@@H](OC)CN(C)C(=O)c2cc(NC(=O)C3CCC3)ccc2OC[C@@H]1C | ? | . | . |
| CCNC(=O)[C@H]1[C@H](CO)[C@H]2Cn3c(ccc(/C=C/c4ccccc4)c3=O)[C@H]2N1C(=O)C1CC1 | 0.2 | 2.2 | -2.0 |
| Cc1ccc(OC(=O)N(C)C[C@H]2OCc3ccccc3-c3ccccc3C(=O)N([C@@H](C)CO)C[C@@H]2C)cc1 | 4.9 | 0.8 | 4.1 |
| COc1cccc(C#Cc2ccc([C@@H]3[C@@H](CO)N4C(=O)CN(C(=O)Cc5cccnc5)C[C@H]34)cc2)c1 | 7.8 | -2.3 | 10.1 |
| CCS(=O)(=O)NC[C@@H]1[C@@H](c2ccccc2)[C@@H](CO)N1CC1CCCCC1 | 0.1 | -0.7 | 0.8 |
| CCCC(=O)N1CC2(CN(C)C2)c2c(n(C)c3cc(OC)ccc23)[C@H]1CO | 13.6 | 4.4 | 9.2 |
| COc1cccc(C(=O)Nc2ccc3c(c2)C(=O)N(C)[C@H]2CC[C@@H](CC(=O)N[C@@H](C)c4ccccc4)O[C@@H]2CO3)c1 | -2.5 | -4.8 | 2.3 |
| CCC(=O)N1C[C@H](O)COC[C@H]2O[C@@H](CC(=O)NCC3CCCCC3)CC[C@@H]21 | 8.3 | 11.4 | -3.1 |
| COCCNC(=O)C[C@@H]1CC[C@H]2[C@@H](COc3ccc(NC(=O)Nc4cccc(F)c4)cc3C(=O)N2C)O1 | -0.9 | -1.3 | 0.4 |
| C[C@@H](NC(=O)C[C@H]1C[C@H]2c3cc(NC(=O)c4cccnc4)ccc3O[C@H]2[C@@H](CO)O1)c1ccccc1 | 5.1 | 6.2 | -1.2 |
| COc1ccccc1CNC(=O)C[C@@H]1C[C@@H]2c3cc(NS(C)(=O)=O)ccc3O[C@@H]2[C@@H](CO)O1 | -1.5 | -0.4 | -1.0 |
| O=C(C[C@H]1CC[C@@H]2[C@H](COC[C@@H](O)CN2Cc2cccc(F)c2)O1)NCCc1ccncc1 | 6.1 | 6.5 | -0.4 |
| O=C(NCC[C@H]1CC[C@@H](NS(=O)(=O)c2cccc(Cl)c2)[C@@H](CO)O1)c1cnccn1 | 0.0 | 5.7 | -5.7 |
| CC(=O)N1[C@H](CN(CC2CCC2)C(=O)CN(C)C)[C@@H](c2ccccc2)[C@@H]1CO | 1.3 | 3.6 | -2.3 |
| CC=Cc1ccc2n(c1=O)C[C@H]1[C@H](CO)[C@@H](C(=O)N(C)C)[C@@H]2N1CC1CCCC1 (mixture of isomers) | 2.9 | 1.1 | 1.8 |
| COCC(=O)N1CCC2(CC1)CN[C@H](CO)c1c2c2ccc(OC)cc2n1C | 14.9 | -9.3 | 24.2 |
| COc1ccc2c3c([nH]c2c1)[C@@H](CO)N(Cc1ccccc1)CC31CN(CC2CC2)C1 | ? | . | . |
| Cc1ccccc1S(=O)(=O)N1CC[C@H]2[C@H](CO)Nc3ccc(-c4cccc(C#N)c4)cc3[C@H]21 | ? | . | . |
| COc1ccc(NC(=O)N(C)C[C@@H]2Oc3ncc(-c4cccnc4)cc3C(=O)N([C@H](C)CO)C[C@H]2C)cc1 | 0.4 | -2.0 | 2.3 |
| CCS(=O)(=O)N1CC2(CN(Cc3ccc(F)cc3)[C@@H](CO)c3c2c2ccc(OC)cc2n3C)C1 | ? | . | . |
| C[C@H]1CN([C@@H](C)CO)C(=O)c2cc(C#Cc3ccccc3)cnc2O[C@H]1CN(C)C(=O)c1ccccc1 | 1.1 | 2.0 | -0.9 |
| CN1C(=O)c2cc(NC(=O)c3ccc(F)c(F)c3)ccc2OC[C@@H]2O[C@@H](CC(=O)N[C@@H]3CCN(Cc4ccccc4)C3)CC[C@H]21 | 1.5 | -0.8 | 2.3 |
| CN(C)C(=O)c1ccc(-c2ccc3c(c2)[C@H]2[C@H](CCN2C(=O)c2ccc4c(c2)OCO4)[C@@H](CO)N3)cc1 | ? | . | . |
| O=C(C1CCCC1)N1[C@H](CO)[C@@H](c2ccccc2)C12CN(CCC(F)(F)F)C2 | -8.8 | -11.1 | 2.3 |
| CO[C@H]1CN(C)C(=O)c2cc(NC(=O)C3CCOCC3)ccc2OC[C@H](C)NC[C@@H]1C | -0.9 | -10.1 | 9.2 |
| COc1ccc2c3c([nH]c2c1)[C@@H](CO)N(Cc1ccc(F)cc1)CC31CN(C)C1 | -5.1 | -3.5 | -1.6 |
| CCCC#Cc1ccc([C@H]2[C@H](CO)N3C(=O)CN(C(=O)c4cccnc4)C[C@@H]23)cc1 | -0.4 | -0.8 | 0.4 |
| O=C(C[C@@H]1C[C@H]2c3cc(NC(=O)C4CCC4)ccc3O[C@H]2[C@@H](CO)O1)NCc1ccccn1 | -3.0 | -7.2 | 4.2 |
| COc1ccc(S(=O)(=O)Nc2ccc3c(c2)CC(=O)N([C@H](C)CO)C[C@@H](C)[C@@H](CN(C)C(=O)Nc2c(C)noc2C)O3)cc1 | 1.5 | 1.1 | 0.4 |
| N#C[C@@H]1[C@H](c2ccccc2)[C@@H](CO)N1S(=O)(=O)c1ccc(F)cc1 | 3.0 | 0.6 | 2.4 |
| O=C(C[C@@H]1CC[C@@H]2[C@H](COC[C@@H](O)CN2S(=O)(=O)c2cccc(Cl)c2)O1)N1CCCCC1 | 9.4 | 0.4 | 9.0 |
| CCCN1C[C@@H](C)[C@@H](OC)CN(C)C(=O)c2ccc(NC(=O)c3ccc(F)cc3)cc2OC[C@H]1C | 1.0 | -2.9 | 3.9 |
| CCCNC(=O)N1CC2(C1)CN(Cc1ccc(F)cc1)[C@@H](CO)c1[nH]c3cc(OC)ccc3c12 | -2.5 | -15.2 | 12.7 |
| COc1ccc2c3c(n(C)c2c1)[C@H](CO)N(C(=O)NC1CCCCC1)CC31CCN(C)CC1 | 1.4 | -3.4 | 4.7 |
| C[C@H](CO)N1C[C@H](C)[C@H](CN(C)Cc2ccc3c(c2)OCO3)OCc2cn(nn2)CCCC1=O | 6.0 | 2.3 | 3.7 |
| COc1ccc(CNC(=O)C[C@H]2C[C@H]3c4cc(NC(=O)CN(C)C)ccc4O[C@H]3[C@H](CO)O2)cc1 | -1.3 | 0.8 | -2.1 |
| O=C([C@@H]1[C@@H](CO)[C@@H]2Cn3c(ccc(-c4cccnc4)c3=O)[C@H]1N2Cc1cccnc1)N1CCOCC1 | 1.5 | 0.9 | 0.5 |
| O=C(CN1CCOCC1)N1CCCCN2[C@H](CO)[C@H](c3ccc(-c4ccccc4F)cc3)[C@@H]2C1 | 7.9 | 2.0 | 5.9 |
| CCCC(=O)Nc1ccc2c(c1)OC[C@@H](C)N(C(=O)CN(C)C)C[C@@H](C)[C@H](OC)CN(C)C2=O | 6.1 | 6.0 | 0.1 |
| C[C@@H]1CN([C@H](C)CO)C(=O)CCCn2nncc2CO[C@H]1CN(C)C(=O)Nc1ccccc1F | 9.8 | 8.7 | 1.1 |
| CN(C)c1ccc2c(c1)[C@@H]1C[C@H](CC(=O)N3CCc4ccccc4C3)O[C@@H](CO)[C@@H]1O2 | ? | . | . |
| COCC(=O)Nc1ccc2c(c1)C(=O)N(C)[C@@H]1CC[C@H](CC(=O)N3CCc4ccccc4C3)O[C@@H]1CO2 | -0.4 | 1.2 | -1.6 |
| CCCN1[C@@H]2Cn3c(ccc(-c4ccncc4)c3=O)[C@H]1[C@@H](C(=O)NCC1CC1)[C@@H]2CO | 3.3 | 2.1 | 1.1 |
| O=C(C[C@@H]1CC[C@@H]2[C@H](COC[C@H](O)CN2S(=O)(=O)c2ccccc2)O1)NCCN1CCCC1 | -1.9 | -2.6 | 0.7 |
| COc1ccc(NC(=O)N(C)C[C@@H]2Oc3ccc(NC(=O)Nc4cccc5ccccc45)cc3CC(=O)N([C@H](C)CO)C[C@@H]2C)cc1 | 0.9 | 3.4 | -2.5 |
| O=C(C[C@H]1CC[C@H]2[C@@H](COC[C@@H](O)CN2CC2CCOCC2)O1)NCc1ccc(Cl)cc1 | -2.4 | 1.1 | -3.5 |
| CCC(=O)N1CC2(C1)[C@@H](c1ccccc1)[C@@H](CO)N2CC1CCCC1 | -7.6 | -9.5 | 2.0 |
| COCC(=O)N1[C@H](CO)[C@H](c2ccccc2)C12CN(C(=O)Cc1ccccn1)C2 | 9.5 | 4.9 | 4.6 |
| Cc1ccccc1-c1ccc2c(c1)O[C@@H](CN(C)C(=O)Nc1ccc(C(F)(F)F)cc1)[C@@H](C)CN([C@@H](C)CO)S2(=O)=O | -0.8 | 0.0 | -0.8 |
| COc1ccc2c3c(n(C)c2c1)[C@@H](CO)N(CC1CC1)CC31CCN(C(=O)NC2CCCC2)CC1 | -2.2 | 3.9 | -6.1 |
| Cc1noc(C)c1NC(=O)N(C)C[C@H]1OCCCC[C@@H](C)Oc2ccc(NC(=O)Nc3ccc(C(F)(F)F)cc3)cc2C(=O)N([C@@H](C)CO)C[C@H]1C | 2.4 | -0.9 | 3.3 |
| COc1cccc(S(=O)(=O)N[C@@H]2CC[C@@H](CC(=O)NC3Cc4ccccc4C3)O[C@H]2CO)c1 | 6.6 | 5.6 | 1.1 |
| O=C(NC[C@@H]1[C@@H](c2ccccc2)[C@@H](CO)N1Cc1ccccc1)c1ccccn1 | -0.9 | -7.9 | 7.0 |
| C[C@H](NC(=O)C[C@H]1C=C[C@@H](NS(=O)(=O)c2cccc(F)c2)[C@H](CO)O1)c1ccccc1 | -7.4 | -3.0 | -4.4 |
| O=C(c1ccc2c(c1)OCO2)N1C[C@@H]2N[C@H](C1)C2c1ccc(-c2ccncc2)cc1 (stereo partly drawn) | ? | . | . |
| OC[C@@H]1[C@H]2c3ccccc3NC[C@H]2N1CC1CCCCC1 | -6.3 | 8.0 | -14.2 |
| COc1ccc2c3c([nH]c2c1)[C@@H](CO)N(C(=O)CN(C)C)CC31CCN(CC2CCCCC2)CC1 | -6.9 | 2.3 | -9.2 |

Additional entries follow:
| compound | DUX4 txn inh | DUX4 txn inh difference | DUX4 txn inh control |
| --- | --- | --- | --- |
| CCCNC(=O)N1CC2(C1)[C@@H](c1ccccc1)[C@@H](CO)N2CC1CC1 | -2.3 | -6.8 | 4.4 |
| O=C1CCC(=O)N[C@H](c2ccccc2)C/C=C\CCN1 | -2.9 | 0.2 | -3.0 |
| CCCC(=O)Nc1ccc2c(c1)C(=O)N(C)[C@H]1CC[C@H](CC(=O)NCC3CCCCC3)O[C@H]1CO2 | 0.5 | -1.4 | 1.9 |
| CN1c2ccc(-c3ccc(F)cc3)cc2[C@@H]2[C@@H](CCN2C(=O)Nc2cc(F)ccc2F)[C@@H]1CO | -3.3 | -10.3 | 7.1 |
| COc1ccccc1C#Cc1ccc([C@@H]2[C@@H](CO)N3CCCCN(S(C)(=O)=O)C[C@H]23)cc1 | -6.8 | -1.4 | -5.5 |
| CNC[C@@H]1Oc2ccc(NS(=O)(=O)c3cccs3)cc2C(=O)N([C@@H](C)CO)C[C@H]1C | -3.0 | -3.7 | 0.7 |
| COc1cccc(-c2ccc([C@H]3[C@H]4CN(C(=O)CN5CCOCC5)CC(=O)N4[C@H]3CO)cc2)c1 | 1.3 | -2.6 | 3.9 |
| C/C=C/c1ccc2c(c1)O[C@H](CNC)[C@@H](C)CN([C@H](C)CO)S2(=O)=O | -1.2 | -2.2 | 1.0 |
| CO[C@@H]1CN(C)C(=O)c2cc(NC(=O)c3cnccn3)ccc2OC[C@H](C)NC[C@H]1C | -2.3 | -6.5 | 4.2 |
| COc1ccccc1CN1[C@@H]2Cn3c(ccc(C4=CCCCC4)c3=O)[C@H]1[C@@H](C(=O)N(C)C)[C@@H]2CO | 0.9 | 2.0 | -1.1 |
| COCC(=O)N1CC2(C1)[C@H](c1ccccc1)[C@@H](CO)N2CCC(F)(F)F | 10.1 | 5.6 | 4.6 |
| CN(C)c1ccc2c(c1)[C@@H]1C[C@H](CC(=O)N3CCc4ccccc4C3)O[C@H](CO)[C@@H]1O2 | -0.5 | 8.4 | -8.9 |
| C/C=C/c1ccc([C@H]2[C@@H](CO)N(c3nc(-c4ccccc4)cs3)[C@H]2C#N)cc1 | 5.1 | 2.3 | 2.8 |
| C[C@@H](NC(=O)C[C@@H]1C=C[C@H](NS(=O)(=O)c2cccc(F)c2)[C@H](CO)O1)c1ccccc1 | 4.2 | 3.6 | 0.6 |
| CN(C[C@@H]1[C@@H](c2ccccc2)[C@H](CO)N1CC1CC1)C(=O)c1ccccc1 | -6.6 | -7.9 | 1.3 |
| CN1[C@@H]2Cn3c(ccc(-c4cccc(F)c4)c3=O)[C@H]1[C@@H](C(=O)N1CCCCC1)[C@@H]2CO | 10.0 | 3.2 | 6.8 |

Three entries from above in another layout:
Every second line gives: DUX4 txn inh | DUX4 txn inh difference | DUX4 txn inh control
CCCC(=O)Nc1ccc2c(c1)C(=O)N(C)[C@H]1CC[C@H](CC(=O)NCC3CCCCC3)O[C@H]1CO2
→ 0.5 | -1.4 | 1.9
C/C=C/c1ccc([C@H]2[C@@H](CO)N(c3nc(-c4ccccc4)cs3)[C@H]2C#N)cc1
→ 5.1 | 2.3 | 2.8
COc1ccccc1C#Cc1ccc([C@@H]2[C@@H](CO)N3CCCCN(S(C)(=O)=O)C[C@H]23)cc1
→ -6.8 | -1.4 | -5.5
